# Screening data: PubChem BioAssay, several laboratories
# GALR2 ag: activates the human galanin receptor 2. O43603. GALR2-expressing cells, agonist activation read-out. activation, %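 (tested at 5 µM)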. actives 0.48% (n = 140,000). AID 803;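 active = above mean plus 3 SD of all compounds, about 5% in these data, not always enough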;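 also: 0% = vehicle buffer wells and 100% = reference agonist at full effect; tested in CHO reporter cells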
# INS promoter inh: TRM-6 insulin promoter activity inhibition; inhibition, % at 2 µM; actives 0.9% (n = 130,000); TRM-6 cells (human fetal islet line), insulin promoter-eGFP reporter, imaging; reporter expression induced with tamoxifen;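 active = inhibition above the mean plus 3 SD, with well images judged a real hit on visual review, cut at about 60% in these data, passing the limit was not always enough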
# PKD1 inh: blocks activity of human protein kinase D1; inhibition, %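 (about 10 µM by stock and volumes)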; PKD1 kinase fluorescence polarization assay; actives 0.056% (n = 200,000); Q15139; AID 797;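 active = inhibition of 50% or more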;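 also: controls were vehicle for no effect and a reference inhibitor for full effect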
# Target sequence (Q15139 whole entry, looked up): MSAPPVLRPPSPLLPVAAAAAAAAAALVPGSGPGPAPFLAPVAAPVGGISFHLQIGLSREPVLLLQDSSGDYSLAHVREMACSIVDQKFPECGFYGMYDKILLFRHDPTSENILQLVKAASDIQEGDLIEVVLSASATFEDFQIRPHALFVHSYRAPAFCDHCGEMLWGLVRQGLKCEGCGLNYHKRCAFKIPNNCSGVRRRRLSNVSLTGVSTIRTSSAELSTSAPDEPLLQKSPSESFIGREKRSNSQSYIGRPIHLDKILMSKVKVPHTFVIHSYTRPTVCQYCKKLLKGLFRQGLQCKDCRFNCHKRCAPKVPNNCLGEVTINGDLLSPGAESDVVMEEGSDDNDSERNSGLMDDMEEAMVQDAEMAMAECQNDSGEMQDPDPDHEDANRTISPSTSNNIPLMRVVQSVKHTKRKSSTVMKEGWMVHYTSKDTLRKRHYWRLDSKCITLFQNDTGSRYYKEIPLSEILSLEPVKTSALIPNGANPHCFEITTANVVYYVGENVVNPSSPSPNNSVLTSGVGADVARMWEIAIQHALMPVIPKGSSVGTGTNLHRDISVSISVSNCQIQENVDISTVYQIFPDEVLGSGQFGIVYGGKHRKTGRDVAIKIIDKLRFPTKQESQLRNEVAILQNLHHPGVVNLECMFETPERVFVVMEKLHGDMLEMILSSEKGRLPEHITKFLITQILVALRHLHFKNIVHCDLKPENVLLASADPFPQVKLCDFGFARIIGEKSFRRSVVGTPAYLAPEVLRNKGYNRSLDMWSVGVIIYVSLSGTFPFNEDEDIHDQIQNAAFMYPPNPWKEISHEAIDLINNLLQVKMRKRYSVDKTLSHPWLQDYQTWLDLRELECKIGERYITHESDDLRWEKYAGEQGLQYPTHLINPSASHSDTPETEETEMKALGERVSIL
# RGS16-Gao HTS: modulates binding between human RGS16 and Galphao; O15492+P09471; bead-based flow cytometry RGS16-Galphao binding, fluorescence; actives lie on both sides; binding response (% of control), % at 10 µM; actives 0.38% (n = 220,000); AID 1441;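 active = below 25% or above 175%, edge rows of some plates excepted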;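 also: Galphao activated by GDP with aluminum fluoride before binding; 100% = wells without compound and 0% = beads without RGS; some results beyond the cut were filed as inactive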
# HSV replic up: HSV replication enhancement | HSV replication augmentation in cells, fold increase | maximum fold increase | actives 0.005% (n = 220,000) | AID 1956;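 active = peak rise of 1.5-fold or more in the series; tested in PC3 cells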;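 also: first round at 10 µM; read as green reporter fluorescence; hits show the peak of a series up to 25 µM; 1 = signal of infected wells without compound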
# INS promoter inh cell count: also measured in INS promoter inh; calls as there; normalized cell count, %; measured here: cell count, toxicity; reference of the scale not given here;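 cells exposed to compound for 48 h; stained nuclei by imaging scaled within each plate; lower means fewer cells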
# HSV replic up primary fold: second read-out of HSV replic up, no call of its own (marks repeat the call); fold increase; compound at 10 µM; measured here: primary screen fold increase 10 uM; tested in PC3 cells;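 GFP signal in the first replicate; 1 = infected wells without compound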
# * marks the source's active call; other numbers are inactive results; i = inactive; nt = no result given; [ ] = another dose, or the depositor's remark.
# Start of the data: the first 5 entries, ahead of the listing:
SMILES,GALR2 ag,INS promoter inh,INS promoter inh cell count,PKD1 inh,RGS16-Gao HTS,HSV replic up,HSV replic up primary fold
COc1ccc(S(=O)(=O)Nc2ccc3cn[nH]c3c2)cc1C,nt,nt,nt,4.0,100.9,i,0.9
COc1ccc2[nH]c(-c3ccccc3)cc2c1,nt,nt,nt,nt,96.2,i,1.04
CCOC(=O)c1oc2cc(OC(C)=O)ccc2c(=O)c1-c1ccc(OC)c(OC)c1,nt,nt,nt,nt,102.0,i,0.95
O=[N+]([O-])c1cccc(/C=N/NC2CCS(=O)(=O)C2)c1 (stereo not given),nt,nt,nt,nt,101.8,i,0.85
CCc1ccc(C(=O)C(C)OC(=O)C2COc3ccccc3O2)cc1 (stereo not given),-1.2,-21.6,144.7,-13.3,104.8,i,0.93

# The whole of this part, from the first entry:
SMILES,GALR2 ag,INS promoter inh,INS promoter inh cell count,PKD1 inh,RGS16-Gao HTS,HSV replic up,HSV replic up primary fold
COc1ccc(S(=O)(=O)Nc2ccc3cn[nH]c3c2)cc1C,nt,nt,nt,4.0,100.9,i,0.9
COc1ccc2[nH]c(-c3ccccc3)cc2c1,nt,nt,nt,nt,96.2,i,1.04
CCOC(=O)c1oc2cc(OC(C)=O)ccc2c(=O)c1-c1ccc(OC)c(OC)c1,nt,nt,nt,nt,102.0,i,0.95
O=[N+]([O-])c1cccc(/C=N/NC2CCS(=O)(=O)C2)c1 (stereo not given),nt,nt,nt,nt,101.8,i,0.85
CCc1ccc(C(=O)C(C)OC(=O)C2COc3ccccc3O2)cc1 (stereo not given),-1.2,-21.6,144.7,-13.3,104.8,i,0.93
CC(C)CCSc1nc(N2CCOCC2)c2c(c1C#N)CC(C)(C)OC2,2.2,nt,nt,-6.4,98.1,i,0.8
CCOC(=O)/C(O)=C/c1ncc(C(F)(F)F)cc1Cl,-2.1,29.0,62.5,-8.6,93.0,i,1.12
C=CCn1c(-c2ccc(Cl)cc2)ccc(C#N)c1=O,-0.1,-20.0,86.7,-0.4,70.8,i,0.59
Cc1ccc(C#CC(C)(O)C(C)(C)C)cn1 (stereo not given),nt,nt,nt,nt,103.3,i,0.84
COCCn1c(C)cc(C2=NNC(=Nc3ccccc3F)SC2)c1C,-3.5,0.0,144.8,-1.4,110.3,i,0.86
CCOc1ncccc1C(=O)OCC(=O)NCCc1ccccc1,-0.5,40.0,66.4,-5.4,101.9,i,0.9
CCOC(=O)N1CCN(CC(=O)Nc2c(C(=O)OC)[nH]c3ccc(Cl)cc23)CC1,-2.7,12.5,104.8,-17.3,99.8,nt,nt
O=C1N(c2ccccc2)C(c2ccc(Cl)cc2)N2CCCN12 (stereo not given),-0.3,nt,nt,-7.8,86.3,i,1.07
O=C(Nc1scc(-c2ccc(F)cc2)c1C(=O)O)c1ccco1,-1.0,-13.3,124.5,1.4,100.5,i,0.89
Cn1c(N)c(C(=O)COC(=O)C2CCN(S(=O)(=O)c3cccs3)CC2)c(=O)n(C)c1=O,nt,nt,nt,nt,103.5,i,0.86
O=C(CCN1CCCC1)Nc1cccc(Br)c1,-0.3,nt,nt,6.9,106.0,i,0.93
O=C(/C=C/c1ccccc1)NCCCNC(=O)/C=C/c1ccccc1,nt,0.0,33.6,8.8,103.0,i,0.95
Cc1ccc(C(=O)N2CCC3(CC2)Oc2ccc(Cl)cc2C(=O)C32CC(c3ccccc3)=NO2)s1 (stereo not given),nt,nt,nt,nt,98.1,i,0.61
CC(=O)Nc1nc(C)c(Oc2ccccc2)c(=O)[nH]1,-1.9,0.0,61.6,-3.6,100.3,i,0.89
Cc1ccc(C(=O)CC(C(=O)O)n2cnc([N+](=O)[O-])n2)cc1 (stereo not given),nt,20.0,105.3,-8.8,100.6,i,0.9
CC(=O)c1ccc(N2CCc3ccccc3C2)c([N+](=O)[O-])c1,nt,nt,nt,nt,94.7,i,1.08
COC(=O)c1ccccc1NC(=S)NC(=O)CC(C)C,-1.4,nt,nt,-6.5,95.2,i,1.01
CCOc1ccc(NC(=O)c2c[nH]n3c(=O)cc(C4CCN(C(=O)OC(C)(C)C)CC4)nc23)cc1,nt,nt,nt,nt,95.7,i,1.04
CCCCc1ccc(NC(=O)COCC)cc1,-1.1,23.8,117.3,1.6,101.0,i,0.86
c1ccc(C[n+]2csc3ccccc32)cc1,-1.9,7.1,97.8,-10.2,69.0,i,1.12
S=c1[nH]nc(-c2ccco2)n1/N=C/c1ccc(Br)s1,-2.8,15.4,131.0,-5.1,98.9,i,1.12
COCCN(CCOC)C(=O)N1CCOCC1,nt,nt,nt,nt,102.3,i,1.02
COc1cccc(C2c3c(oc4ccc(F)cc4c3=O)C(=O)N2CCCN2CCOCC2)c1 (stereo not given),-0.6,nt,nt,0.2,94.6,nt,nt
C(=N\N=C\c1cccs1)/c1cccs1,nt,nt,nt,4.2,94.8,i,0.91
O=C(Cn1ncc(N2CCCC2)c(Br)c1=O)c1ccc(Cl)cc1,nt,nt,nt,3.3,103.4,i,0.89
O=C(Cc1cccs1)NNC(=S)NC(=O)c1ccco1,nt,0.0,142.5,-2.2,105.4,i,0.97
CN(C)S(=O)(=O)c1ccc(N2CCCC2)c(C(=O)Nc2nc(-c3cc(F)ccc3F)cs2)c1,-0.5,45.5,107.7,-1.4,84.0,i,0.91
COCCCNC(=O)c1sc2ncnc(N3CCc4ccccc4C3)c2c1C,-1.2,-13.9,146.7,-2.3,89.5,i,0.81
CNc1nc(N)nc(-c2cc(Cl)ccc2OC)n1,nt,-22.2,70.4,3.9,99.0,i,1.11
CCOC(=O)c1sc(N(C)C)nc1-c1ccccc1,-4.3,-125.0,123.6,2.9,100.3,i,0.99
FC(F)(F)c1cc(C(F)(F)F)c2ccc(N3CCN(c4ncccn4)CC3)nc2n1,-0.1,-75.0,71.9,-6.6,101.7,i,1.07
Cc1cc(C)c(NC(=O)Nc2ccccc2)c(Cl)c1,0.4,0.0,67.8,0.6,102.4,i,0.89
CCN(Cc1ccncc1)Cc1c(O)ccc2cc(Br)ccc12,nt,-13.3,69.3,-5.5,104.9,i,0.99
Cc1ccnc(NS(=O)(=O)c2ccc(C(C)(C)C)cc2)c1,nt,nt,nt,-4.4,98.1,i,0.96
CCOC(=O)c1c(CN(C)C)n(C)c2ccc(OC(C)=O)cc12,-0.2,nt,nt,1.8,102.7,i,0.97
CCCCN(C)S(=O)(=O)c1c(C)[nH]c(=O)[nH]c1=O,-3.1,7.1,104.3,-6.6,99.8,i,0.83
Cc1cc(C)c(C)c(S(=O)(=O)NC(C)C(=O)O)c1C (stereo not given),nt,nt,nt,nt,95.3,i,0.48
O=C(O)C1CCCN1C(=O)c1cncc(Br)c1 (stereo not given),0.1,-9.1,183.5,-12.1,101.6,i,1.01
Cc1cc2ncc(-c3ncc(C(F)(F)F)cc3Cl)cn2n1,-2.6,18.8,141.7,-4.5,102.5,i,1.13
COc1ccc(NC(=O)c2cccnc2)c(OC)c1,-1.9,-14.3,133.2,-0.3,101.0,i,1.17
CN(CC1CCCO1)S(=O)(=O)c1ccc(C(=O)Nc2nc(-c3ccccn3)cs2)cc1 (stereo not given),-4.6,nt,nt,-10.8,102.1,i,0.82
Cc1cc(C)nc(NC(=O)CCCC(=O)O)c1,-1.6,-61.3,45.3,-6.6,97.2,nt,nt
O=C(NCCCn1ccnc1)c1cc(-c2cccc(O)c2)on1,nt,nt,nt,nt,92.3,i,0.66
Cc1ccccc1NC(=O)c1ocnc1C,-1.7,nt,nt,-8.9,100.9,i,0.85
O=C(Nc1cccc(Br)c1)/C(=C\c1cccnc1)NC(=O)c1ccco1,-1.4,33.3,106.8,-11.8,96.9,i,0.91
O=C(O)CCc1ccccc1OC(=O)c1ccccc1,nt,nt,nt,nt,101.4,i,0.91
O=C(O)CCCC(=O)Nc1cccc2cccnc12,-4.2,nt,nt,-12.6,70.7,i,0.91
O=C(CN(Cc1ccco1)C(=O)CNS(=O)(=O)c1ccc(Cl)cc1)NCc1ccc(F)cc1,-0.2,-72.5,118.2,-7.8,nt,i,1.06
CC(C)(O)C#Cc1ccc(CN2CCN(Cc3ccsc3)C(CCO)C2)s1 (stereo not given),nt,nt,nt,-8.9,97.8,i,1.02
C=CCn1c(SCC(=O)c2[nH]c(C)c(C(=O)OC)c2C)nc2scc(-c3ccc(OC)c(OC)c3)c2c1=O,-0.9,nt,nt,-4.5,88.7,i,1.04
CC1(C)C2CCC(C2)C1(C)N=C1OC(CCl)CS1 (stereo not given),nt,nt,nt,nt,101.5,i,1.03
CCc1ccc(C(=O)NNc2ccc(S(N)(=O)=O)cc2)cc1,nt,nt,nt,nt,99.0,i,0.93
CCOC(=O)N1CCN(S(=O)(=O)c2cc([N+](=O)[O-])c(C)cc2C)CC1,nt,-52.9,131.5,-10.0,106.1,i,1.08
Cc1ccsc1C(=O)NC(C)c1ccc2c(c1)OCO2 (stereo not given),-1.4,-30.0,109.0,6.2,105.0,i,1.04
O=c1ccccn1Cc1ccccc1F,0.1,nt,nt,-7.5,102.0,i,1.02

# The results go on.
SMILES,GALR2 ag,INS promoter inh,INS promoter inh cell count,PKD1 inh,RGS16-Gao HTS,HSV replic up,HSV replic up primary fold
C#CC1CCCCC1NC(=O)Nc1cnccc1C(F)(F)F (stereo not given),nt,nt,nt,nt,100.1,i,1.15
CCOc1cc(/C=N/n2cnnc2)cc(Br)c1O,-3.2,-11.1,125.1,6.9,103.6,i,0.88
Cc1oc(=O)c(NC(=O)c2ccccc2)cc1C(=O)c1ccccc1,-2.7,10.8,113.9,-10.2,97.4,i,1.07
Cn1c(=O)[nH]c(=O)c2c1nc(N1CCOCC1)n2CCSc1nnnn1-c1ccccc1,nt,nt,nt,nt,98.5,i,1.09
COc1ccc(-c2noc(CNC(=O)Nc3ccc(F)cc3)n2)cc1,nt,10.5,149.2,-0.2,100.3,i,1.05
Cc1cccc(NC(=O)CSc2nnnn2-c2cccnc2)c1,-1.5,25.0,116.8,-7.0,103.3,i,0.76
O=C(Nc1cccnc1N1CCOCC1)c1ccco1,-0.7,-33.3,120.0,-12.3,100.0,i,1.03
O=C(CNc1cccc(C(F)(F)F)c1)N/N=C/C1CCCCC1,-0.4,14.8,130.6,-1.4,100.4,i,0.98
CC(=O)NC(Nc1c(C)n(C)n(-c2ccccc2)c1=O)C(Cl)(Cl)Cl (stereo not given),nt,nt,nt,-9.2,99.5,i,1
Cc1cccc2nc(CSc3nc4ccccc4[nH]3)cn12,nt,nt,nt,-2.4,140.3,i,0.93
CC(C)(C)c1ccc(-c2cc(C(=O)NNC(=O)Nc3ccccc3)c3ccccc3n2)cc1,-1.4,-70.3,48.5,-3.1,79.8,i,0.913
CCc1cccc(NC(=O)Cc2cn(C)c3ccccc23)c1,-1.0,44.2,71.7,2.2,105.3,i,0.96
CC1=Nc2ccccc2/C1=C/c1sc(=N)n(-c2nccs2)c1O,-0.9,-48.8,99.2,-1.0,98.9,nt,nt
COC(=O)Cc1sc(-c2ccccn2)nc1-c1ccccc1,nt,-22.2,104.4,-0.3,76.2,i,0.92
COC(=O)CNC(=O)c1nn(-c2cccc(OC)c2)c(=O)c2ccccc12,-2.2,nt,nt,-0.2,100.4,i,1.23
O=C(Nc1ccccc1)C1=C[C@H](c2ccc3c(c2)OCO3)C[C@H](OCCCCO)O1,nt,nt,nt,-7.9,101.3,i,1.03
COc1ccc2c(CC(=O)Nc3c(C)n(C)n(-c4ccccc4)c3=O)coc2c1,-0.8,nt,nt,-1.3,98.8,i,1.08
CC1(C)CC(=O)c2cc(OCC(=O)NCc3cccnc3)ccc2O1,-1.3,nt,nt,-12.7,111.3,i,0.86
CCNCc1ccc(OCc2ccccc2F)c(OC)c1,nt,nt,nt,-2.8,100.9,i,0.86
Cn1nc(-c2ccc(Cl)cc2)c2cc(C(=O)NCCN3CCOCC3)sc21,-2.6,nt,nt,2.6,98.5,i,0.83
CCCCNC(=O)C1CCCN(S(=O)(=O)c2c(C)noc2/C=C/c2cccs2)C1 (stereo not given),nt,nt,nt,nt,89.7,i,0.95
O=C1CCCc2c1nc(-c1cccc(Cl)c1)n2O,-0.7,-228.6,106.3,4.1,77.5,i,0.87
COC(=O)C1=C(C)N=c2s/c(=C3\C(=O)Nc4ccccc43)c(=O)n2C1c1ccccc1 (stereo not given),-1.0,nt,nt,-9.6,178.8*[activator],nt,nt
COc1ccc(-c2c(C#N)c(SCC(=O)Nc3ccccc3)nc3c2CCCC3)cc1,-0.2,-270.0,62.5,5.3,nt,i,1.09
COc1ccc(-c2[nH]ncc2CN2CCCN(C(=O)c3ccco3)CC2)cc1F,nt,nt,nt,nt,93.9,i,0.96
Cc1occc1C(=O)NC1CCCc2ccccc21 (stereo not given),-1.5,-20.0,117.5,-0.5,105.1,i,1.09
